High-throughput results from PubChem BioAssay.
YjeE inh: qHTS Assay for Inhibitors of YjeE | 71,000 tested, 0.05% active | purified YjeE, fluorescence polarisation of a bound ADP probe | tRNA threonylcarbamoyladenosine biosynthesis protein TsaE (Escherichia coli (strain … | Potency, µM; active = well fitted falling curve; inconclusive = weaker or top-dose-only fall, or a rising curve; inactive = flat or poorly fitted curve;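 also: top concentration of the series not given in the record; excess ADP was the control for the full effect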
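Purified YjeE (10 uM) with BODIPY Texas Red-labeled ADP probe (2 uM); compounds pin-transferred, 15 min at room temperature. Binding inhibition read as decreased fluorescence polarization; ADP titration as control.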
PK Bst: Pyruvate Kinase; AID 361, 2006; 51,000 tested, 1.2% active; Potency, µM; partly purified Bacillus stearothermophilus pyruvate kinase, luminescence ATP production; ribose 5-phosphate activator present at AC10; in the data active means potency below about 11 µM; inconclusive means mostly about 12 µM to 25 µM; inactive means weaker than that;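 the screen sought inhibitors and activators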;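 also: potency is read from the fitted curve at half-maximal effect; scaled between full activation by ribose 5 phosphate and full inhibition by luteolin; about four in five hits inhibit and the cells do not say which; series up to 57 µM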
Numbers without * were called inactive; i = inactive; ? = inconclusive; . = not tested or not shown. A portion of the library (hit frequency here may not be typical).

SMILES	YjeE inh	PK Bst
COc1ccc(N(CC(=O)Nc2ccc(C)cn2)S(=O)(=O)c2c(C)nn(C)c2C)cc1	i	.
COc1ccc(CC(=O)Nc2nc3ccccc3s2)cc1S(=O)(=O)N1CCOCC1	i	>57
CCOC(=O)c1[nH]c(C)c(C(=O)Nc2ccc(F)cc2)c1C	i	.
OC[C@@H]1O[C@@H](n2cnc3c(NC4CCCC4)ncnc32)[C@@H](O)[C@H]1O	i	.
COCCn1c(=O)c(-c2ccc(OC)cc2)nc2cnc(Nc3ccccc3)nc21	i	.
COc1ccccc1N1CCN(C(=O)CCCCn2c(=O)[nH]c3ccsc3c2=O)CC1	i	.
CCOC(=O)C1CCN(c2ncnc3c2cnn3-c2ccc(Cl)cc2)CC1	.	>26
CC1Cc2ccccc2N1c1ncnc2nc[nH]c12 (configuration not stated)	i	.
COc1nc(C)ccc1-c1noc(-c2ccccn2)n1	i	i
COc1cc(OC)cc(-c2nnc(SCC(=O)N3CCCCC3)o2)c1	i	.
O=C(Nc1cccc(O)c1)c1ccc(Br)cc1	i	.
O=C(Oc1ccccc1)N1CCC2(CCCN(c3cccc(-c4ccccc4)c3)C2)CC1	i	.
CC(C)NS(=O)(=O)c1ccc(CCC(=O)NCc2cccnc2)cc1	i	>57
NCCC[C@@H](CC(=O)N[C@@H]1CCNC[C@H]1C(=O)N[C@H](CC(=O)N[C@@H](CCC(=O)O)CC(=O)O)Cc1ccccc1)NC(=O)C[C@H](Cc1ccccc1)NC(=O)[C@@H]1CNCC[C@H]1N	i	.
N#CC(C(=O)NC1CC1)c1nc2ccccc2nc1N1CCCC1 (configuration not stated)	i	.
Clc1ccc([C@H](Cn2ccnc2)OCc2c(Cl)cccc2Cl)c(Cl)c1	i	.
O=C(O)CCCSc1nc2ccccc2s1	i	.
C=CCN1C(=O)CSc2ccc(C(=O)NCc3ccco3)cc21	i	>57
O=c1[nH]c2cccnc2n1Cc1ccco1	i	>57
COC(=O)NCC(c1cccnc1)N1CCOCC1 (configuration not stated)	i	.
COc1ccc(CNc2nc3c(c(=O)n(Cc4ccc(Cl)cc4)c(=O)n3C)n2C)cc1	i	>57
COc1ccc(C(=O)N2CCC[C@@]3(CCN(Cc4ccccc4OC)C3)C2)cc1	i	.
COc1ccccc1-c1ccc2ncnc(NCCNC(C)=O)c2c1	i	.
COc1nc2ccccc2cc1-c1noc(-c2cccnc2)n1	i	>57

Profiles as entered above. Order of values: YjeE inh, PK Bst
Entry for COc1nc2ccccc2cc1-c1noc(-c2cccnc2)n1 : i, >57
Entry for COc1ccc(CNc2nc3c(c(=O)n(Cc4ccc(Cl)cc4)c(=O)n3C)n2C)cc1 : i, >57
Entry for COc1ccc(C(=O)N2CCC[C@@]3(CCN(Cc4ccccc4OC)C3)C2)cc1 : i, .
Entry for COC(=O)NCC(c1cccnc1)N1CCOCC1 (configuration not stated) : i, .
Entry for COc1ccccc1-c1ccc2ncnc(NCCNC(C)=O)c2c1 : i, .

Carrying on.
SMILES	YjeE inh	PK Bst
CCOC(=O)N1CCN(C(=O)c2ccc3c(=O)n(CCOC)c(=O)[nH]c3c2)CC1	i	>57
COc1ccccc1CNC(=O)COc1ccccc1OC	i	>57
CC12CCC(C(=O)N3CCN(c4ccccc4)CC3)(CC1=O)C2(C)C (configuration not stated)	i	>57
Cc1oc2c(CN3CCCC3)c(O)ccc2c(=O)c1-c1ccccc1	i	>57
O=C(Cc1cccs1)Nc1ccc(N2CCOCC2)cc1	i	.
COc1cccc(-c2nccc(NCCc3c[nH]c4ccc(OC)cc34)n2)c1	i	.
COc1cc(NC(=O)CN(c2ccc(C)cc2)S(=O)(=O)c2c(C)n[nH]c2C)cc(OC)c1	i	>57
c1cnc2c(SCc3ccc(-c4nnco4)cc3)cccc2c1	i	2.4*
CC1Cc2ccccc2N1S(=O)(=O)c1cccc(C(=O)OCC(=O)NC2CCS(=O)(=O)C2)c1 (configuration not stated)	i	i
CCOC(=O)Cn1nc(C)c(-c2ccccc2)c1N	i	>57
O=C(c1scc2c1CCCC2)N1CCOCC1	i	i
CCOC(=O)C(c1ccccc1)N1CCN(c2ccc(OC)cc2)CC1 (configuration not stated)	.	>26
O=C(Nc1nccs1)C1(S(=O)(=O)c2ccc(Cl)cc2)CC1	i	?
Cc1cc(NC(=O)c2ccccc2-c2ccccc2C(=O)O)no1	i	>57
CC1=CCC2CC1C2(C)C (configuration not stated)	i	.
COc1cc2c(cc1OC)CN(c1ccc(-c3ccccc3OC)nn1)CC2	i	>57
COc1ccccc1CNc1ccnc(-c2ccc3c(c2)OCO3)n1	i	.
Cc1cc(=O)[nH]c(SCC(=O)N2CCCCCC2)n1	i	>57
CCc1nnc(NC(=O)CN2CCOCC2)s1	i	>57
O=C(Cn1ccc(C(F)(F)F)n1)Nc1ccc(S(=O)(=O)NCc2ccco2)cc1	i	>57
O=C(NC1CCCCC1NC(=O)c1ccco1)c1ccco1 (configuration not stated)	i	>57
COc1ccc(C(=O)CSc2nn3c(=O)c(C(C)(C)C)nnc3s2)cc1	i	>57
CC(C)Sc1nc2c(c(=O)[nH]c(=O)n2C)n1Cc1ccc(Cl)cc1	i	>57
COc1ccc(C[C@@](C)(N)C(=O)O)cc1OC	i	.
Cc1csc2nc(CNS(=O)(=O)c3ccc4c(c3)OCCO4)cn12	i	.
O=S(=O)(N1CCCCCC1)N1CCN(S(=O)(=O)N2CCOCC2)CC1	i	>57
CC(=O)c1ccccc1OCCn1nnc(-c2ccc(C)cc2)n1	i	>57
COC(=O)c1cc(COC(=O)c2ccc3ccccc3n2)oc1C	i	.
CN(C)Cc1ccccc1-c1ccc2ncnc(NCc3cccs3)c2c1	i	.
COc1ccc(S(=O)(=O)N2CCC(C(=O)NC3CC3)CC2)cc1Cl	i	>57
Cc1csc2nc(CCNS(=O)(=O)c3cccs3)cn12	i	.
CCCCOc1ccccc1C(=O)NCCCC(=O)O	.	>26
CCOc1ccc(/C(O)=C2\C(=O)C(=O)N(CCN(C)C)C2c2cc(OC)ccc2OC)cc1Cl (configuration not stated)	i	>57
O=C(CC1CCCCC1)NC1CCCC1	i	>57
O=c1nc2s/c(=C\c3ccco3)c(=O)n2nc1Cc1ccc(F)cc1	i	>57
CCOC(=O)c1c(C)c(C(=O)NCc2ccc3c(c2)OCO3)c(C)n1CC	i	>57
Cc1ccc(C)c(S(=O)(=O)NC(CCC(N)=O)C(=O)O)c1 (configuration not stated)	i	>57
O=C(CN1CCN(c2nc(-c3ccc(F)cc3)cs2)CC1)Nc1ccc2c(c1)OCO2	i	>57
CCOc1ccc(-n2c(SCc3nc(-c4cccs4)no3)nnc2-c2ccncc2)cc1	i	>57
O=C(NCC(c1cccnc1)N1CCN(c2ccc(F)cc2)CC1)c1ccccc1 (configuration not stated)	i	>57
Cc1ccc(NC(=O)CSc2nnc(-c3ccccn3)n2C)cc1	i	>57
O=C(CCNS(=O)(=O)c1ccc(Cl)cc1)NCc1ccccn1	i	>57
N=c1c(C(=O)NC2CCCC2)cc2c(=O)n3ccccc3nc2n1CCN1CCOCC1	i	>57
CC(=O)Nc1nnc(SCc2cccc(F)c2)s1	i	.
COc1ccc(NC(=O)Nc2ccc3c(c2)N(C)C(=O)CS3)cc1OC	i	.
Cc1onc(-c2ccccc2Cl)c1C(=O)Nc1nnc(C(C)C)s1	i	.
Cc1cnc(C(=O)OCC(=O)Nc2oc(-c3ccccc3)c(-c3ccccc3)c2C#N)cn1	i	>57
Oc1[nH]c2ccccc2c1C=Nc1ccc2c(c1)OCCO2	i	3.2*

3 of the compounds above, with the structure last.
YjeE inh	PK Bst	smiles
i	.	Cc1onc(-c2ccccc2Cl)c1C(=O)Nc1nnc(C(C)C)s1
i	>57	Cc1cnc(C(=O)OCC(=O)Nc2oc(-c3ccccc3)c(-c3ccccc3)c2C#N)cn1
i	3.2*	Oc1[nH]c2ccccc2c1C=Nc1ccc2c(c1)OCCO2

(cont.)
SMILES	YjeE inh	PK Bst
COc1ccccc1N1CCN(C(=O)c2cc(-c3ccc(Cl)c(Cl)c3)on2)CC1	i	>57
CC(=O)Nc1cc(NC(C)=O)cc(C(=O)OCC(=O)N2CC(C)OC(C)C2)c1 (configuration not stated)	i	>57
CCOC(=O)CNC(=O)CSc1ncnc2c1cnn2-c1ccccc1	i	>57
O=C(NCCCN1CCCC1=O)NC12CC3CC(CC(C3)C1)C2	i	>57
Cc1cccc(-n2nnc(C(=O)Nc3ccc(F)cc3)c2N)c1	i	>57
CC1CCCCC1NS(=O)(=O)c1ccc(S(=O)(=O)N2CCN(CCC#N)CC2)cc1 (configuration not stated)	i	.
N#CCCN(CCC#N)C(=O)COc1ccc(Cl)cc1Cl	i	>57
C/C(N)=C(\C#N)C(=O)NCCc1ccccn1	i	>57
C[C@H]1[C@@H](O)[C@@H](C)\C=C/C=C\C=C/C=C\C=C/C=C\C=C/[C@@H](O[C@H]2O[C@@H](C)[C@@H](O)[C@@H](N)[C@@H]2O)C[C@@H]2O[C@](O)(C[C@@H](O)C[C@@H](O)[C@@H](O)CC[C@@H](O)C[C@@H](O)CC(=O)O[C@H]1C)C[C@@H](O)[C@H]2C(=O)O (stereo in doubt)	i	.
C=CCn1c(SCC(=O)Nc2cc(C)c(Cl)cc2OC)nnc1-c1ccco1	i	>57
CC(C)COP(=O)(c1ccc(N(C)C)cc1)C(O)c1ccncc1 (configuration not stated)	i	>57
O=C1C=C(NCC2CCCO2)CC(c2ccccc2)C1 (configuration not stated)	i	.
Cc1cc(Oc2ccc(=O)n(C)n2)nc(Oc2ccc(=O)[nH]n2)n1	i	>57
CCOC(=O)c1[nH]c(C)c(C(=O)NCc2cccnc2)c1C	i	.
Cc1ccccc1-c1nc(NCc2cccs2)c2ccccc2n1	i	.
O=S1(=O)C[C@@H](N2CCOCC2)[C@H](N2CCOCC2)C1	.	>26
COc1ccc(CC(=O)OCn2nnc3ccccc3c2=O)cc1	i	>57
CC(=O)N1CCC2(CCN(Cc3ccncc3)CC2)CC1	i	.
COc1cccc(C(=O)CN2C3=NCCCN3c3ccccc32)c1	i	>57
Cc1noc(C)c1S(=O)(=O)NCCN1CCN(c2ccccc2)CC1	i	>57
CN(C)CC(=O)Nc1ccc(S(N)(=O)=O)cc1	i	.
CC(C)(C)c1ccccc1OCC(=O)NCCC(=O)O	i	>57
CN(C)S(=O)(=O)N(Cc1ccc(Br)cc1)c1ccccc1	i	>57
C[N+](C)([O-])CCC=C1c2ccccc2CCc2ccccc21	i	.
CCOC(=O)CC(Nc1nc(N2CCOCC2)nc(N2CCOCC2)n1)c1ccccc1Cl (configuration not stated)	i	>57
C=CCNC(=O)c1c(Cl)cccc1Cl	i	.
N#CCCn1c(=O)c(-c2ccc(Cl)cc2)nc2cnc(N3CCNCC3)nc21	i	.
CC(CCc1ccco1)NC(=O)Nc1cccc(F)c1 (configuration not stated)	i	>57
CC1=C(C(=O)O)N2C(=O)[C@@H](NC(=O)[C@@H](N)C3=CCC=CC3)[C@@H]2SC1	i	.
CN1CCN(CC#CCn2c3ccccc3c3ccccc32)CC1	i	>57
COc1ccc(C(NC(=O)c2ccco2)c2ccc(OC)c(OC)c2)cc1 (configuration not stated)	i	.
O=C(O)c1cc(S(=O)(=O)N2CCCCCC2)c(Cl)cc1Cl	i	.
C#C[C@]1(O)CC[C@H]2[C@@H]3CCc4cc(O)ccc4[C@H]3CC[C@@]21C	i	.
CCCC(=Nc1ccccc1)C1=C(O)C(C(=O)OC)C(C)(C)CC1=O (configuration not stated)	i	.
CCOC(=O)c1c(N)sc2c1CCCC2	i	>57
COc1ccc(OC)c(S(=O)(=O)N2CCc3ccccc32)c1	i	>57
O=C(OCC1OC2C(Oc3nc(=O)ccn32)C1O)c1ccccc1 (configuration not stated)	i	>57
N#CC(C#N)=NNc1ccc2cn[nH]c2c1	i	.
CCOC(=O)c1c2n(c3ccc(O)cc13)CCC2	i	>57
COC(=O)CNC(=O)c1ccc2c(c1)S(=O)(=O)c1ccccc1C2=O	i	>57
Cc1cccc(NC(=O)CSc2nnc(-c3cc(C)n(-c4ccccc4)c3C)o2)c1C	i	>57
c1ccc2[nH]c(CN3CCN(c4ncnc5c4oc4ccccc45)CC3)nc2c1	i	.
C[C@@H](CS(=O)(=O)Cc1ccccc1)C(N)=O	i	.
CCOC(=O)/C=C1\NC(=O)CS1	i	>57
Cc1ccc(Nc2nc(N)nc(CSc3nnc(-c4ccncc4)o3)n2)cc1	i	>57
COc1ccccc1OCC(O)CN1C(=O)NC(C)(C)C1=O (configuration not stated)	i	.
Cn1c(=O)oc2cc(S(=O)(=O)N3CCCC(C(=O)NCc4cccs4)C3)ccc21 (configuration not stated)	i	.
CCS(=O)(=O)N1CCC(C(=O)NC2CCCCCCC2)CC1	i	>57

Ordered by SMILES length (rising): part of the list above.
SMILES	YjeE inh	PK Bst
COc1ccc(C(NC(=O)c2ccco2)c2ccc(OC)c(OC)c2)cc1 (configuration not stated)	i	.
COc1ccc(CNc2nc3c(c(=O)n(Cc4ccc(Cl)cc4)c(=O)n3C)n2C)cc1	i	>57
CC1=C(C(=O)O)N2C(=O)[C@@H](NC(=O)[C@@H](N)C3=CCC=CC3)[C@@H]2SC1	i	.

The list goes on:
SMILES	YjeE inh	PK Bst
NC(=O)c1cnccn1	i	.
CCOC(=O)NC(Nc1sc2c(c1C(=O)OC)CCN(C)C2)(C(F)(F)F)C(F)(F)F	.	>26
Nc1[nH]c(=O)ncc1F	i	.
CCOc1cccc(-c2nnc3sc(COc4ccc(C)cc4)nn23)c1	i	>57
CCCCn1nnc(NC(=O)c2cc3ccccc3o2)n1	i	>57
CC(=O)NC(CCS(C)(=O)=O)C(=O)Nc1nccs1 (configuration not stated)	i	>57
O=C(CCCC(=O)N(CC(=O)NC1CCCC1)Cc1ccccc1)Nc1ccccn1	i	>57
